# Rango dissoc inh: inhibitors of RanGTP-induced Rango-importin beta complex dissociation. O95149+P62826. Biochemical FRET Rango-importin beta, RanGTP-induced dissociation. Potency, µM (highest dose often 46.1 µM), without a hit: at the top dose activity change, negative = inhibition. 0.071% of 340,000 active; active means falling FRET ratio curve, often poorly fitted, with flat reads before Ran was added; inconclusive means other falling curves, or compound fluorescence or quenching; inactive means flat or rising ratio curve;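 further: potency means the concentration at half of the fitted maximal effect; % of control where 0% means no effect; nearly all actives have a fitted effect of over 45% in size; -100% = wells without RanGTP and RCC1; the record marks most hits as doubtful in a second field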
#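 Rango FRET biosensor (snurportin-1 IBB flanked by N-terminal EYFP and C-terminal CFP10) at 0.1 uM, with 0.25 uM importin beta in PBS, 1mM DTT, 0.02% Tween-20, 0.1% BSA. 0.6 uM Ran, 2mM GTP and 0.2 uM RCC1 were then added for 45 min at room temperature. Inhibition read as loss of FRET rise.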
# miR-21 reporter: raises the signal of a miR-21 reporter | HeLa miR-21 FLuc reporter, luciferase, 48 h | Potency, µM (titrated, usually from 38.3 µM), inactives show at the top dose reporter change, positive = more light | 340,000 tested, under 10 active; active = well fitted rising curve with a large enough effect; inconclusive = small, poorly fitted or top-dose-only effect; inactive = no such curve, though single readings can be large or run the other way;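 further: % of control where 0% means no effect; miR-21 action dims this reporter so a rising signal means less miR-21 action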
#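 Luminescence from a firefly luciferase reporter carrying a miR-21 binding site downstream, stably expressed under a CMV promoter in HeLa cells that make miR-21 endogenously, reports miRNA modulation after 48 h compound exposure up to approximately 40uM final.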
# Rango-impB inh: Rango-importin beta binding inhibition; AID 540263; Q14974; Potency, µM (titrated, usually from 92.2 µM), for the others: top-dose inhibition of complex formation; 0.031% of 340,000 active; Rango CFP/YFP FRET sensor + importin beta, 45 min; active = rising FRET ratio curve, often small or poorly fitted; inconclusive = mostly compound fluorescence or quenching in the first reads; inactive = flat curves in all reads;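 further: potency means the concentration at half of the fitted maximal effect; 0% = DMSO wells and 100% = buffer wells lacking importin beta; nearly all actives have a fitted effect of over 15% in size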
#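 Inhibition scored from the CFP 486 nm/YFP 530 nm FRET ratio 45 min after adding 0.125 microM importin beta to 50 nM Rango biosensor preincubated 5 min with compound (room temperature, PBS with DTT, Tween-20, BSA). No-importin wells as positive control.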
# GLA inh pH 4.5: alpha-galactosidase A (human) inhibition, pH 4.5 | P06280 | purified enzyme, 4-MU-alpha-Gal fluorescence, pH 4.5 | activity change, negative = inhibition, % at 105 µM | 230,000 tested, under 10 active | AID 1467; inconclusive = small, poorly fitted or top-dose-only inhibition, or a rising curve; inactive = flat fitted curve, though single readings scatter; no compound was filed as active;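 further: 0% = full activity with enzyme and -100% = basal without enzyme; dose as in the result columns while the protocol names 77 µM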
# Target sequence (P06280 whole entry, looked up): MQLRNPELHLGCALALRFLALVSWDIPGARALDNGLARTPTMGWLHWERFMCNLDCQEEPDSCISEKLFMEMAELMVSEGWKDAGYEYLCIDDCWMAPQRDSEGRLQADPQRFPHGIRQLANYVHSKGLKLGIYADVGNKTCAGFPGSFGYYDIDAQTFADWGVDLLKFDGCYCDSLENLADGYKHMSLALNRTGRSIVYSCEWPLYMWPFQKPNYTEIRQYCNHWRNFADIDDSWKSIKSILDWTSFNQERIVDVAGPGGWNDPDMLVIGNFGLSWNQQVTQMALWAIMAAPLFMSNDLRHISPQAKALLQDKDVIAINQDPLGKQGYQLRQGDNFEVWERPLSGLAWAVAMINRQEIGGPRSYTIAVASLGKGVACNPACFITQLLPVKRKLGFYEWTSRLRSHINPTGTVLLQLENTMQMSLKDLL
# Active calls of the source: *; ? = inconclusive; / = not tested or not shown; & = joins results of further samples; [ ] = remark or other dose. These rows are one share of the data; rates above refer to the full screens.
Rango dissoc inh | miR-21 reporter | Rango-impB inh | SMILES | GLA inh pH 4.5
-5% | / | -2.0% | CCN(CC)S(=O)(=O)c1ccc(N2CCOCC2)c(NC(=O)c2ccc3c(c2)OCCO3)c1 | /
-2% | / | -0.3% | CC(Oc1cccc(Br)c1)C(=O)NNC(=O)CCS(=O)(=O)c1ccccc1 (stereo not drawn) | /
15% | -3% | 0.4% | COc1ccccc1-c1nnc2sc(C3CCCCC3)nn12 | 0
1% | / | -2.9% | CCOc1ccc(NC(=O)CCc2c(C)noc2C)cc1OC | /
19% | -3%&-3% | 0.0% | CCOc1ccc(NC(=O)C(NC(=O)C2CCC(C)CC2)C(C)C)cc1 (stereo not drawn) | 7
6% | / | -0.4% | CCOc1ccc(C(C)=O)cc1COC(=O)CNC(=O)c1cccs1 | /
-3% | -3% | 0.7% | COc1ccc(CC(CC(=O)O)C(=O)NCc2ccccc2)cc1 (stereo not drawn) | 4
3% | -2% | 4.6% | O=C(CCn1c(=S)[nH]c2ccccc2c1=O)NCCc1ccccc1 | 6
16% | 1% | -0.8% | COCCn1c(C)cc(C(=O)COC(=O)c2ccc([N+](=O)[O-])o2)c1C | 4
18% | -1% | -1.9% | c1coc(CNc2nc(-c3cccs3)cs2)c1 | 0
-3% | 3% | -1.1% | Cn1c2ccccc2c2cc(/C=C(\NC(=O)c3ccccc3)C(=O)O)ccc21 | 5
? | -7% | 2.2% | c1nc(N2CCCCC2)c2[nH]cnc2n1 | 11
1% | / | 1.0% | Cc1cc2c(c(C)c1CCO)C(=O)[C@H](C)C2 | /
0% | -2% | -2.6% | COc1ccc(-n2ncc3c2CC(C)(C)CC3NC(=O)c2cnc(C)cn2)cc1 (stereo not drawn) | /
1% | -9% | -1.0% | CC(C)C(NC(=O)C12CC3CC(CC(C3)C1)C2)C(=O)N/N=C/C1=C(N2CCOCC2)C(=C\c2ccc([N+](=O)[O-])cc2)/CC1 (stereo not drawn) | -8
-2% | -1% | -4.7% | CCNC(=O)CC1C(=O)N(c2ccccc2)C(=O)N1CCc1ccc(OC)c(OC)c1 (stereo not drawn) | 0
2% | -4% | ? | CNC(=O)C(=O)NCCc1ccc(Cl)cc1 | 6
-5% | / | -0.2% | O=C(NCCOc1ccc(Cl)cc1)c1cccc(S(=O)(=O)N2CCCC2)c1 | /
11% | -9% | 1.6% | O=C(c1ccc2ncsc2c1)N1CCN(c2ccc(O)cc2)CC1 | 1
0% | 2% | 0.1% | COc1ccc(OC)c(C2NC(=O)NC(C)=C2C(=O)Nc2ccc(C)cc2C)c1 (stereo not drawn) | 3
18% | -1% | 0.0% | Cc1c(Cl)ccc2c1NC(=O)C21NC(CCC(N)=O)[C@H]2C(=O)N(c3ccc(Cl)cc3)C(=O)[C@H]21 (stereo partly drawn) | 0
-14% | 0% | 3.4% | O=C(c1ccccc1)N1N=C(c2ccccc2)CC1c1ccccc1 (stereo not drawn) | /
-4% | / | -1.2% | CCOC(=O)c1ccc(NC(=O)C2(N3C(=O)c4ccccc4C3=O)CCCC2)cc1 | /
2% | -2% | 0.0% | CC(C)CC(NC(=O)OC(C)(C)C)c1cn([C@@H](CCC(=O)OC(C)(C)C)C(=O)N2CCN(C(=O)OC(C)(C)C)CC2)nn1 (stereo partly drawn) | -10
19% | 6% | -3.4% | COc1ccc(NC(=S)N(CCCN2CCC(C)CC2)Cc2cccs2)cc1 | 3
-9% | 3% | -1.2% | Cc1cccc(NC(=O)CSc2nnc([C@H](C)NC(=O)OC(C)(C)C)o2)c1C | /
-5% | / | -0.8% | CN(c1ccccc1)S(=O)(=O)c1cccc(C(=O)OCC(=O)Nc2ccc(C(N)=O)cc2)c1 | /
0% | -2% | 0.9% | Cc1ccc(S(=O)(=O)NN2C(=O)c3ccccc3NC2c2ccco2)cc1 (stereo not drawn) | 2
0% | 0% | 4.8% | COc1ccc(CNC(=O)CN(Cc2ccccc2)C(=O)CCC(=O)Nc2nccs2)cc1 | /
1% | -44% | -0.5% | CS(=O)(=O)N1CCN(c2ccc(NC(=O)c3ccc([N+](=O)[O-])o3)cc2)CC1 | -1
-5% | -5% | -3.0% | O=C(O)CCc1ccc(-c2ccccc2)n1CC1CCCO1 (stereo not drawn) | 24
14% | 1% | 0.4% | O=C(/C=C/c1cc([N+](=O)[O-])ccc1OC(F)F)Nc1cccc(OC(F)F)c1 | 3
-16% | 11% | -1.7% | COc1cccc(-c2nc(CS(=O)(=O)CC(=O)Nc3ccc(F)cc3F)c(C)o2)c1 | /
9% | / | -4.1% | S=c1[nH]nc(COc2ccccc2)n1-c1ccc(Cl)cc1 | /
10% | / | -1.9% | COc1ccc(CCN(C)C(=O)c2c(C)noc2C)cc1OC | /
-2% | / | -0.8% | COc1ccc(C(=O)NCC(=O)OCC(=O)NC2CCCCCC2)cc1 | /
1% | -19% | 1.0% | O=C(NCCCn1ccnc1)c1cc(-c2ccc(Br)cc2)on1 | 7
-1% | / | -1.3% | O=C(Cn1c(NCCO)nc2ccccc21)Nc1cccc(S(=O)(=O)N2CCCC2)c1 | /
-14% | 5% | -2.9% | O=C(N/N=C/c1cn(Cc2ccccc2)c2ccccc12)c1ccncc1 | 0[21.1 µM]
-16% | -11% | -0.6% | Cc1csc(SCc2nc3sc4c(c3c(=O)[nH]2)CCC4)n1 | 5
-5% | 17% | 0.5% | Clc1ccc(-n2cc(-c3ccc(Br)cc3)[n+]3c2CCCCC3)cc1 | -1
/ | -1% | / | COc1ccc(C2c3c(oc4ccccc4c3=O)C(=O)N2Cc2ccncc2)cc1 (stereo not drawn) | -1
28% | 4% | 0.2% | Cc1ccc(C)c(-c2[nH]ncc2CN2CCCC(CO)(Cc3ccccc3C)C2)c1 (stereo not drawn) | -13
-15% | 1% | 0.0% | C=CCn1c(SCC(=O)O)nnc1-c1ccccc1 | 0
7% | -2% | 8.1% | CC(C)N(Cc1ccccc1)C(=O)/C=C/c1ccccc1[N+](=O)[O-] | 2
3% | / | -0.1% | CC1CCC(NC(=O)CN2C(=O)c3ccccc3S2(=O)=O)CC1 (stereo not drawn) | /
-7% | -8% | 2.5% | CC(C)n1c(O)c(/C=C2\C=Nc3ccccc32)sc1=Nc1ccccc1 | -1
12% | 1% | -7.7% | O=C(c1ccc(Cl)cc1)c1nnc(-c2ccncc2)o1 | -3
11% | -3% | 3.3% | Cc1cccc(C(=O)NCCc2nnc(SCC(=O)Nc3cccc(C(=O)O)c3)n2C)c1 | /
-10% | ? | 1.9% | CCN(c1ccccc1)S(=O)(=O)c1ccc(C(=O)Nc2nnc(CSC)o2)cc1 | ?
7% | -6% | 2.9% | CCc1nnc(NC(=O)CSc2n[nH]c(-c3ccccc3O)n2)s1 | -9
/ | 2% | / | CC1(C)Cc2c(C#N)c(N3CCCC3)nc(-c3ccco3)c2CO1 | 0
-3% | 0% | 1.2% | COc1coc(/C=C/C(=O)O)cc1=O | 3
-3% | -1% | -0.5% | CCNS(=O)(=O)c1ccc(CCC(=O)N2CCN(c3ccccc3)CC2)cc1 | /
? | 1%&-4% | 0.6% | Cc1nc2scc(C)n2c(=O)c1S(=O)(=O)Nc1ccc(N2CCOCC2)cc1 | /
-11% | -2% | 3.2% | CCN(CC)S(=O)(=O)c1ccc(OC)nc1 | 1
37% | / | -2.9% | CCOc1ccc(CN(C)C(=O)CN2C(=O)NC(c3ccccc3)(c3ccccc3)C2=O)cc1 | /
18% | -23% | 1.1% | CCc1ccc(C(=O)COC(=O)c2cccc(N3C(=O)c4c(C)nc5ccccc5c4C3=O)c2)cc1 | 8
0% | / | -1.3% | CC(C)CCN1C(=O)c2ccc(C(=O)OCC(=O)N(C)C3CCS(=O)(=O)C3)cc2C1=O (stereo not drawn) | /
30% | -4% | 0.0% | O=C(NCCN1CCOCC1)N1CCOCC1 | 7

# (list continues)
Rango dissoc inh | miR-21 reporter | Rango-impB inh | SMILES | GLA inh pH 4.5
-3% | -19% | -2.3% | Cc1cccc2nc(CSc3nnnn3-c3ccccc3)cn12 | 0
3% | -5% | -0.7% | COc1ccc(/C=N/n2c(=S)n(C)c3ccccc32)cc1OC | 4
14% | -5% | -0.7% | O=C(NCc1ccco1)/C(=C\c1ccco1)NC(=O)c1cccs1 | -7
14% | -5% | ? | O=C(Nc1c(F)c(F)c(F)c(F)c1F)NC1CCCCC1 | 2
1% | / | 2.4% | C=CC(=O)Nc1cccc(Nc2nc(N[C@H]3CC[C@H](N(C)C)CC3)nc3c2ncn3C(C)C)c1 | /
1% | -1% | -0.6% | O=C1CC(c2cccc(F)c2)C2=C(CCCC2=O)N1 (stereo not drawn) | 1
-12% | -2% | 2.2% | COc1ccc(-c2nc(NC(=O)CSc3nnc(C)s3)ns2)cc1 | -7
5% | -6% | 0.1% | COC(=O)c1c(NC(=O)c2ccco2)sc2c1CC(C)(C)NC2(C)C | /
-8% | -50% | -0.4% | COc1ccc(C(=O)NCCC2=CCCCC2)cc1OC1CCN(C(C)C)CC1 | /
0% | 0% | -0.6% | O=C(CSc1nnc(COc2cccc3cccnc23)o1)N1CCN(C(=O)c2ccco2)CC1 | -5
15% | 0% | 2.2% | C=C(C)c1cccc(C(C)(C)NC(=O)NNC(=O)c2ccccc2O)c1 | /
3% | -1% | 1.6% | O=C(CN1C(=O)COc2ccc(Cl)cc21)N1CCCCC1 | /

# The last 6 records of the part before lead into the next:
Rango dissoc inh | miR-21 reporter | Rango-impB inh | SMILES | GLA inh pH 4.5
-12% | -2% | 2.2% | COc1ccc(-c2nc(NC(=O)CSc3nnc(C)s3)ns2)cc1 | -7
5% | -6% | 0.1% | COC(=O)c1c(NC(=O)c2ccco2)sc2c1CC(C)(C)NC2(C)C | /
-8% | -50% | -0.4% | COc1ccc(C(=O)NCCC2=CCCCC2)cc1OC1CCN(C(C)C)CC1 | /
0% | 0% | -0.6% | O=C(CSc1nnc(COc2cccc3cccnc23)o1)N1CCN(C(=O)c2ccco2)CC1 | -5
15% | 0% | 2.2% | C=C(C)c1cccc(C(C)(C)NC(=O)NNC(=O)c2ccccc2O)c1 | /
3% | -1% | 1.6% | O=C(CN1C(=O)COc2ccc(Cl)cc21)N1CCCCC1 | /
-3% | -1% | -2.8% | CCCOc1ccc(C(=O)c2nc3c(n2O)CCCCC3)cc1 | 0
2% | / | -0.4% | CC(=O)N1CCN(S(=O)(=O)c2cccc(C(=O)OCC(=O)N(CCC#N)c3ccc(F)cc3)c2)CC1 | /
-2% | 0% | -1.4% | CCOc1ccc(S(=O)(=O)NNS(=O)(=O)c2ccc(C)cc2C)cc1 | /
2% | 8% | -1.5% | Cc1ccc(NS(=O)(=O)c2ccc(NC(=O)C3CC3)cc2)cc1C | /
4% | 1% | -0.9% | O=C(COC(=O)C1CC(O)CN1S(=O)(=O)c1ccc(Cl)cc1)c1ccccc1 (stereo not drawn) | -10
-1% | 1% | 0.1% | COc1ccc(N2CCN(CC(O)COc3ccc4c(c3)CCC4)CC2)cc1 (stereo not drawn) | 10
19% | 0% | -1.4% | Cc1ccc(N(CC(=O)NC(C)(C)C)C(=O)CNC(=O)c2cccs2)cc1 | 2
-15% | / | -1.7% | CC(Oc1ccc(-c2nnco2)cc1)C(=O)N1CCOCC1 (stereo not drawn) | /
2% | 0% | 3.1% | CCOC(=O)Cn1c(=N)n(CCOc2cccc(C)c2)c2ccccc21 | -4
-13% | -30% | ? | CN=C1S/C(=C\c2ccc(N3CCOCC3)cc2C)C(=O)N1C | -5
10% | -36% | 3.3% | Cc1ccc(-c2cc(-c3ccccc3[N+](=O)[O-])[nH]n2)c(O)c1 | 3
9% | 2% | -1.6% | CCN(CC(=O)NCc1ccc(F)cc1)C(=O)C1CC1C (stereo not drawn) | /
-4% | -32% | 0.0% | COC(=O)c1sc(-c2ccc(Cl)cc2)cc1NC(=O)c1ccccc1C(=O)O | -1
3% | 0% | 2.1% | Cc1cccc(N2CCN(CC(=O)Nc3ccccc3[N+](=O)[O-])CC2)c1C | -26
4% | -9% | -2.1% | O=C(O)c1ccc(NC(=S)NCc2ccccc2)cc1 | /
? | -9% | ? | N#C/C(=C\c1cn(CC(=O)N2CCCC2)c2ccccc12)C(=O)NCc1ccc2c(c1)OCO2 | 10
-5% | 0% | 4.3% | NC(=O)c1ccc(NC(=O)c2ccc3c(c2)CCN3S(=O)(=O)c2ccccc2)cc1 | /

# Screens deposited in PubChem by National Center for Advancing Translational Sciences (NCATS).
